Source: PubChem BioAssay (National Center for Advancing Translational Sciences (NCATS))
Cruzain noTriton – qHTS Assay for Promiscuous and Specific Inhibitors of Cruzain (without detergent) | Cruzipain (Trypanosoma cruzi), P25779 | purified cruzain, Z-FR-AMC fluorescence, no detergent | Potency, µM, for inactives: max response, negative = inhibition, actives largely listed as inhibitors | hit rate 2.3% among 200,000; active means well fitted curve in the direction sought with a large enough effect; inconclusive means small, poorly fitted or top-dose-only effect, or another doubt; inactive means no such curve, though single readings can be large; an effect the other way counts as inactive or inconclusive;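 further: plate controls were enzyme without inhibitor for no effect and buffer without enzyme for full effect; nearly all actives have a fitted effect of over 40% in size; top concentration of the series not given in the record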
Target sequence (P25779 123-467 limits assumed): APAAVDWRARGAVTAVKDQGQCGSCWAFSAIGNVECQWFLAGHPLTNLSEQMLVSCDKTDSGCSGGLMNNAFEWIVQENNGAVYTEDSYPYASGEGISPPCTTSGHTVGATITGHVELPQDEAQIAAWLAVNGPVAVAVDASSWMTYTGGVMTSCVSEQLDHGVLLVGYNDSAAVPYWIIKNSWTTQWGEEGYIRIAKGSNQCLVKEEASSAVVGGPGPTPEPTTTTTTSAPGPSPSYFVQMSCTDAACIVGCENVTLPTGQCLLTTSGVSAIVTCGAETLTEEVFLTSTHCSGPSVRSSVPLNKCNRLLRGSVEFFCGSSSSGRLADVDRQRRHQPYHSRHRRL
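Purified cruzain at 1.5 nM, pre-incubated 15 min with compound at room temperature in 100 mM sodium acetate pH 5.5, 5 mM DTT, 0.00005% Triton X-100. Reaction started with 2 uM Z-FR-AMC; AMC fluorescence increase over 60 s gives rate.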
SARS PLP yeast – qHTS of Yeast-based Assay for SARS-CoV PLP. Potency, µM (top dose mostly 32.9 µM), for the others: at the highest dose activity, positive = growth rescue. hit rate 0.19% among 330,000. S. cerevisiae expressing SARS-CoV PLpro, growth rescue; control for the full effect not named in the record; further: 0% is about no effect; nearly all actives have a fitted effect of over 55% in size; growth read by luminescence after 48 h
Cruzain Triton – qHTS Assay for Promiscuous and Specific Inhibitors of Cruzain (with detergent); Cruzipain (Trypanosoma cruzi), P25779; purified cruzain, Z-FR-AMC fluorescence, 0.01% Triton; Potency, µM, without a hit: max response, negative = inhibition, actives largely listed as inhibitors; hit rate 0.43% among 200,000; active means well fitted curve in the direction sought with a large enough effect; inconclusive means small, poorly fitted or top-dose-only effect, or another doubt; inactive means no such curve, though single readings can be large; an effect the other way counts as inactive or inconclusive;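 further: plate controls were neutral wells for no effect and buffer without enzyme for full effect; nearly all actives have a fitted effect of over 40% in size; top concentration of the series not given in the record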
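Z-FR-AMC hydrolysis (2 uM substrate) by cruzain (1.5 nM) monitored kinetically at ex 360/em 450 nm after 15 min room-temperature compound exposure; 0.01% Triton X-100, pH 5.5, 5 mM DTT.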
LASV entry inh – qHTS for Inhibitors of binding or entry into cells for Lassa Virus. Lassa virus pseudotype entry inhibition, cell reporter; control for the full effect not named in the record. Potency, µM (series often up to 37.9 µM), for inactives: at the highest dose activity change, negative = inhibition, actives largely listed as inhibitors. hit rate 1.2% among 300,000; active means well fitted inhibition curve with a large enough effect; inconclusive means small, poorly fitted or top-dose-only effect, or effect the other way; inactive means flat fitted curve, though single readings scatter; tested in HEK293 cells; further: on the % scale 0 is the no-effect control and ±100 the full control effect; nearly all actives have a fitted effect of over 50% in size; luciferase read-out
NS1 inh – qHTS Assay for Inhibitors of Influenza NS1 Protein Function; S. cerevisiae slowed by influenza A NS1, growth recovery by OD600; Potency, µM (highest dose often 46.1 µM), without a hit: top-dose activity, positive = more growth; hit rate 0.4% among 270,000; AID 2326, 2010; further: actives are rising curves; nearly all actives have a fitted effect of over 50% in size
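A cell-based growth assay was used: compounds that relieve NS1-induced slow growth of budding yeast raise OD600. Assay medium was yeast nitrogen base with ammonium sulphate and -URA supplement, pH 6.0, with 2% galactose.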
MARV entry inh – qHTS for inhibitors of binding or entry into cells for Marburg Virus; hit rate 1.8% among 300,000; Marburg virus pseudotyped entry inhibition, cell reporter; control for the full effect not named in the record; about a third of the inactives were read at about 46 µM; Potency, µM (titrated, usually from 37.8 µM), inactives show at the top dose activity change, negative = inhibition, actives largely listed as inhibitors; active = well fitted inhibition curve with a large enough effect; inconclusive = small, poorly fitted or top-dose-only effect, or effect the other way; inactive = flat fitted curve, though single readings scatter; tested in HEK293 cells; about a fifth of its hits are not listed in these tables; further: on the % scale 0 is the no-effect control and ±100 the full control effect; luciferase read-out
StopGo reporter – High Throughput Screening for Foot and Mouth Disease Virus Antivirals | human cells with a luciferase reporter of 2A StopGo recoding; control for the full effect not named in the record | Potency, µM (highest dose often 57.9 µM), inactives show top-dose signal change, negative = less light | hit rate 1.2% among 410,000 | AID 1159524, 2015; active = well fitted falling curve with a large enough effect; inconclusive = small, poorly fitted or top-dose-only effect; inactive = no such curve, though single readings can be large or run the other way; tested in HEK293T cells; further: on the % scale 0 is the no-effect control and ±100 the full control effect; nearly all actives have a fitted effect of over 45% in size; luciferase light after 4 h
RE007 growth inh – qHTS Assay for Inhibitors of the HIV-1 protein Vpr; S. pombe RE007 Vpr strain, BacTiter-Glo ATP luminescence, 24 h; control for the full effect not named in the record; Potency, µM (top dose mostly 92.2 µM), inactives show at the top dose activity change, negative = less growth; hit rate 0.21% among 360,000; active = well fitted falling curve with a large enough effect; inconclusive = small, poorly fitted or top-dose-only effect; inactive = no such curve, though single readings can be large or run the other way;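 further: on the % scale 0 is the no-effect control and ±100 the full control effect; nearly all actives have a fitted effect of over 50% in size; the assay follows cell death caused by Vpr and the record does not say whether a fall means rescue or toxicity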
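Fission yeast strain RE007, carrying one chromosomally integrated HIV-1 vpr copy, was seeded at OD 0.01 in PMG+AL medium with 23 nL pinned compound. After 24 h at 30 °C and 99% humidity, viability was read by BacTiter-Glo luminescence.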
* = called active by the depositor; ? = inconclusive; . = no result given; & = joins results of further samples; [ ] = dose if it differs, or a comment. Unless noted, the call rests on the fitted dose curve; in most records, active means well fitted rising curve with a large enough effect; inconclusive means small, poorly fitted or top-dose-only effect; inactive means no such curve, though single readings can be large or run the other way. Potency means the concentration at half of the fitted maximal effect.

SMILES	Cruzain noTriton	SARS PLP yeast	Cruzain Triton	LASV entry inh	NS1 inh	MARV entry inh	StopGo reporter	RE007 growth inh
Cc1c(OCC(=O)N2C[C@H]3C[C@@H](C2)c2cccc(=O)n2C3)ccc2c3c(c(=O)oc12)CCCC3	.	1.5%	.	.	-16.8%	.	-4.3%	-7.8%
CC(C)c1ccc(S(=O)(=O)N2CCC(C(=O)NCc3ccco3)CC2)cc1	.	-2.1%	.	-27.4%	.	-10.1%	-17.0%	-24.1%
O=C(COc1ccc(C2SCCS2)cc1)Nc1ccc(Cl)cc1	.	-4.9%	.	?	1.7%	-1.1%[46.1 µM]	-24.4%	27.3%
CCc1c(O)nc(SCC(=O)Nc2ccccc2C)n(-c2ccc(C)cc2)c1=O	.	-4.2%	.	?	19.0%	1.4%[46.1 µM]	-10.6%	12.9%
COc1cc(-c2nc3ccccn3c2Nc2ccccc2C)ccc1O	0.0%	.	-11.9%	?	.	-16.1%[46.1 µM]	-14.6%	.
COc1ccc(CN(C)C(=O)c2ccc(OCC(=O)N3CCOCC3)c(OC)c2)cc1	.	-2.6%	.	-3.0%	.	?	22.5%	-12.9%
COc1ccccc1OCCNC(=O)c1cccs1	-3.7%	4.9%	0.4%	?	-20.6%	0.2%	12.3%	4.2%
O=C(CSc1nc(O)cc(=O)n1-c1ccccc1)Nc1ccc2c3c(cccc13)CC2	?	?	25.1µM*	10.7%	?	-22.5%[46.1 µM]	-5.6%	9.0%
Cc1cc(C)cc(N(CC(=O)NCc2ccccc2Cl)S(=O)(=O)c2c(C)[nH]c(=O)[nH]c2=O)c1	?	4.1%	1.3%	1.5%[46.1 µM]	13.6%	?	-12.1%&-7.5%	12.1%
Cc1c(NC2=NC(C)(C)Cc3ccccc32)c(=O)n(-c2ccccc2)n1C	5.0%	10.4%	-2.9%	12.8%	2.2%	-4.9%	-3.9%	13.5%
Cc1ccc(S(=O)(=O)N2CCc3ccccc3C2)cc1	.	2.2%	.	.	10.9%	.	9.2%	7.0%
N/C(=N\OC(=O)c1ccc(Cl)cc1)c1ccccn1	-11.8%	-20.2%	2.5%	?	-160.6%	?	-79.4%	?
O=S(=O)(CCS(=O)(=O)c1ccccc1)c1ccccc1	.	.	.	11.6%[46.1 µM]	.	?	-2.6%	-11.1%
O=C(NC1CCSc2ccccc21)c1ccc(F)cc1 (stereo not drawn)	.	-6.5%	.	5.7%[46.1 µM]	-1.6%	?	6.2%	14.0%
CC(=O)Nc1ccc2nc(CN3CCN(Cc4ccc(F)cc4)C(CCO)C3)ccc2c1 (stereo not drawn)	.	0.4%	.	.	2.1%	.	-10.4%	-3.3%
COc1ccc(-c2noc(CC(=O)N(C)c3cc(Cl)c(OC)cc3OC)n2)cc1	?	.	-7.6%	-2.2%[46.1 µM]	.	.	0.0%	.
CC1(c2ccccc2Cl)NC(=O)N(CC(=O)Nc2ccccc2OC(F)F)C1=O (stereo not drawn)	.	-1.9%	.	-0.6%	18.8%	-3.6%	0.1%	-7.0%
CCN(CC)CCOc1ccc(C=NNc2nc3c([nH]2)c(=O)n(C)c(=O)n3C)cc1	.	.	.	19.0%[46.1 µM]	.	?	-10.0%	-3.8%
CC1(C)CC(=O)C2=C(C1)N(Cc1ccc(F)cc1)C(=O)C2(NC(=O)c1cccnc1)C(F)(F)F (stereo not drawn)	?	20.6%	-0.5%	-9.5%	-6.3%	2.6%	-8.0%	-12.1%[3.69 µM]
CCc1cc(C)cc(OCCOc2ccccc2/C=N/NC(C)=O)c1	.	1.7%	.	.	-19.5%	.	-23.1%	4.1%
CCOC(=O)N1CCN(S(=O)(=O)c2ccc(C(=O)Nc3nc4c(s3)CC(C)CC4)cc2)CC1 (stereo not drawn)	?	-6.3%	4.1%	3.3%	6.6%	?	-32.6%	5.7%
COC(=O)c1scc(-c2ccc(C)cc2)c1S(=O)(=O)N1CCN(c2ccc(OC)cc2)CC1	-20.1%	.	-4.3%	-21.3%[46.1 µM]	.	.	-23.3%	.
COc1ccc(-c2nn(CC(=O)N(C)C)c(=O)c3ccccc23)cc1	-0.9%	2.3%	-0.3%	-0.7%	-9.0%	-3.0%	-3.6%	-3.0%
COc1cc([N+](=O)[O-])ccc1NC(=O)Cc1ccccc1	.	-2.1%	.	-3.3%	-2.9%	3.7%	-12.8%	1.3%
CSc1n[nH]c(=O)n1-c1ccc(Cl)cc1	.	0.6%	.	?	5.1%	-3.8%	-17.3%	1.9%
O=C(Nc1ccccc1C(=O)N1CCOCC1)C1CCCO1 (stereo not drawn)	-6.8%	0.2%	4.7%	0.7%	0.6%	-0.3%	8.6%	-0.8%
COc1ccc(-c2c3c(=O)n(C)c(=O)n(C)c3c3c(-c4cccc(C)c4)nc4ccccc4n23)cc1	?	.	-1.8%	?	.	?	?	.
O=C(NNc1ccccc1)C(=O)N1CCCCC1	-13.9%	1.1%	-0.4%	1.7%	-5.1%	2.3%	-6.4%	270.8%
COc1cc(-c2n[nH]c(=S)n2-c2ccc(Br)cc2)cc(OC)c1OC	.	-2.0%	.	.	1.9%	.	-12.9%	1.1%
CCOC(=O)c1ccc(Oc2nc(NC)nc(Nc3ccccc3)n2)cc1	-9.9%	.	-2.2%	0.6%	3.2%	?	11.3%	-5.6%
CCOC(=O)c1ccc(OCc2nc(-c3cccs3)no2)cc1	-8.9%	3.9%	-3.7%	?	-2.4%	25.9%	.	-18.5%
NS(=O)(=O)c1ccc(CCNC(=O)c2cc(-c3ccc(Br)cc3)nc3ccccc23)cc1	.	0.7%	.	.	?	.	11.7%	-23.0%
COc1ccc(N2CCN(C(=O)COC(=O)CSc3ccccc3)CC2)cc1	.	4.4%	.	-19.4%	.	0.0%[46.1 µM]	4.3%	?
CN(C)CCOC(=O)/C(=C/c1cn(C)c2ccccc12)NC(=O)c1ccccc1	.	1.0%	.	11.8%	5.5%	?	-14.4%	26.3%
CCOC(=O)c1c(NC(=O)COc2ccccc2C#N)sc2c1CC(C)(C)NC2(C)C	.	?	.	0.1%	-1.0%	-4.8%	-15.6%	3.1%
CCCCN(C(=O)CSc1nc2ccccc2n1CC)C1CCS(=O)(=O)C1 (stereo not drawn)	.	2.7%	.	-0.5%	.	-26.1%	-8.1%	11.2%
COC(=O)c1ccc(CNC(=O)COC(=O)c2ccccc2-c2ccccc2)cc1	.	1.3%	.	13.4%	.	-28.2%	?	11.3%
CCN(CC(=O)Nc1ccc([N+](=O)[O-])cc1OC)CC(=O)NC(C)(C)C	11.4%	9.7%	-2.4%	33.3%	-5.3%	8.3%	0.1%	16.5%
COc1cc(C(=O)NCc2ccc3c(c2)CCN3C(=O)c2ccncc2)cc(OC)c1OC	26.1%	.	-0.1%	17.7%[46.1 µM]	.	.	-4.7%	.
O=C1CN(c2cc(Cl)cc(Cl)c2)C(=O)CN1/N=C/c1cccnc1	.	-0.6%	.	4.8%	4.6%	0.0%[14.2 µM]	-12.0%	-3.6%
CCOC(=O)c1c(NC(=O)C2=C(C)NC(=S)NC2c2ccc(F)cc2)sc(C)c1C (stereo not drawn)	15.8µM*	7.2%	-6.1%	?	17.7%	-40.3%	-15.9%	-13.8%
Cn1c(=O)[nH]c(=O)c2c1nc(N1CCCCC1)n2CCOc1ccccc1	3.4%	0.4%	-2.9%	8.6%	3.0%	-14.0%[46.1 µM]	?	0.1%
COc1cc(N2C(=O)c3ccccc3C2=O)c(Cl)cc1C(=O)OCC(=O)N1CCOCC1	.	5.0%	.	1.7%	.	0.0%	-17.1%	-3.9%
Cc1ccc(N2CCN(S(=O)(=O)N3CCCCC3)CC2)c(C)c1	.	-3.6%	.	?	-8.6%	-0.7%[46.1 µM]	-25.4%	6.3%
CC(C)c1ccc(NC(=O)Cn2c(=O)oc3ccccc32)cc1	.	1.4%	.	.	-3.7%	.	16.8%	2.4%
CSc1ccccc1C(=O)NCc1ccc(S(N)(=O)=O)cc1	-14.1%	-2.8%	2.6%	0.1%	-1.0%	18.1%	7.3%	4.7%
CCCc1cc(C(=O)N2CCN(S(=O)(=O)c3ccc(OC)c(OC)c3)CC2)cs1	?	-0.9%	0.4%	51.0%[14.3 µM]	-19.9%	-18.7%	-24.5%	9.6%
COc1ccc(CC(=O)N2CCN=C2SCc2ccc([N+](=O)[O-])cc2)cc1	.	5.9%	.	?	.	?	?	5.3%
Cc1cc(C)nc(NS(=O)(=O)c2ccc(NC(=O)c3nc(SC(C)C)ncc3Cl)cc2)n1	?	.	-4.1%	-17.5%[46.1 µM]	.	-15.4%[46.1 µM]	28.4%	.
O=C(CC(c1cccs1)N1Cc2ccccc2C1=O)Nc1ccc(F)c(F)c1 (stereo not drawn)	-4.7%	.	-0.4%	22.7%[46.1 µM]	.	.	11.3%	.
COc1ccc(C2=NOC(C(=O)NCc3ccccn3)C2)cc1OC (stereo not drawn)	-0.2%	-6.9%	2.7%	-17.1%	2.0%	-24.0%	0.6%	10.1%
Cc1ccc(C(=O)Nc2ccc([N+](=O)[O-])cn2)o1	-10.4%	4.7%	-8.1%	9.4%	4.4%	-15.5%	25.7%	?
Cc1ccccc1NC1=NCC(c2ccc([N+](=O)[O-])cc2)S1 (stereo not drawn)	.	6.1%	.	5.3%	.	?	-23.6%	?
